Screening results (PubChem)
N370S GC mod: N370S glucocerebrosidase modulation, Gaucher chaperone candidate; 330,000 tested, 0.092% active; Potency, µM (top dose mostly 59.4 µM), without a hit: at the highest dose activity change, negative = inhibition, hits mostly inhibitors; P04062; AID 2101; N370S GC spleen homogenate, 4MU-glucoside fluorescence; active means well fitted inhibition curve with a large enough effect; inconclusive means small, poorly fitted or top-dose-only effect, or effect the other way, or another doubt; inactive means no such curve, though single readings can be large or run the other way;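 further: 0% = full enzyme activity and -100% = no enzyme basal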
Active calls of the source: *; ? = inconclusive; & = joins results of further samples; [ ] = dose if it differs, or a comment. Potency means the concentration at half of the fitted maximal effect. Only part of the results is shown, and most or all hits are left out here.

SMILES	N370S GC mod
CC(=O)c1ccc(C(=O)NC2CC(C)(C)Cc3c2cnn3-c2ccccc2)cc1 (stereo not given)	3%
O=C(Nc1ccc2c(c1)OC1(CCCC1)O2)C1CC1	7%
COc1ccc(/C=C/C(=O)NC(=S)N2CCSCC2)cc1	-16%
COc1ccc(OC)c(NC(=O)Nc2ccc3c(c2)CCC3)c1	-9%
O=C(CN1CCN(CCN2C(=O)c3cccc4cccc(c34)C2=O)CC1)c1ccc(F)cc1	-17%
COc1cccc(N(CC(=O)Nc2cccc(N(C)S(C)(=O)=O)c2)S(C)(=O)=O)c1	2%
Cc1ccc(OCCNC(=O)C2CCCCC2)cc1	2%
CCOC(=O)c1c(C)nsc1NC(=O)c1ccco1	-4%
Fc1cccc(NC(=S)N2CCCCC2)c1	3%
Cc1cccc(NS(=O)(=O)c2cccc(C(=O)NCCCN3CCOCC3)c2)c1	0%
CCCCNC(=O)OC1CCS(=O)(=O)C1 (stereo not given)	4%
CC(NC(=O)c1ccc(NC(=O)CC2SC(N3CCCC3)=NC2=O)cc1)c1ccc(S(N)(=O)=O)cc1 (stereo not given)	-9%
Cc1ccccc1C(=O)NC1CCN(CC(=O)NCc2ccccc2)CC1	-3%
NC1=NC(=O)C(Cc2cccc(Cl)c2Cl)S1 (stereo not given)	-2%
Cc1ccc(S(=O)(=O)Cc2ccc(C(=O)N3CCCC3)o2)cc1	-1%
N/C(=N\OC(=O)c1ccc(OCC(F)(F)F)nc1)c1ccc(Cl)cc1	-6%
CCOP(=O)(OCC)C(Nc1cccc(C(F)(F)F)c1)c1ccc(F)cc1 (stereo not given)	-12%
COc1ccc(N2CCN(C(=O)c3cccc(N4C(=O)C5C6C=CC(C6)C5C4=O)c3)CC2)cc1 (stereo not given)	5%
COC(=O)CCC(=O)Nc1cccc(Br)c1	4%
COc1ccc(C(=O)N/N=C/c2ccc(OC(=O)c3cccc4ccccc34)c([N+](=O)[O-])c2)cc1	-4%
Clc1cccc(-c2nc3nc4ccccc4nc3n2Cc2ccco2)c1	?
Cc1ccc(C)c(NC(=O)C(NCC(C)(C)N2CCOCC2)c2ccccc2)c1 (stereo not given)	2%
CC(=O)CCc1ccc(OCCCCn2cncn2)cc1	-13%
NS(=O)(=O)c1ccc(CCNC(=O)C(=O)c2cn(CC(=O)N3CCCC3)c3ccccc23)cc1	-5%
COc1cccc(NC(=S)N2CCN(S(C)(=O)=O)CC2)c1	-1%

2 of these compounds in a different format:
smiles,N370S GC mod
COc1ccc(N2CCN(C(=O)c3cccc(N4C(=O)C5C6C=CC(C6)C5C4=O)c3)CC2)cc1 (stereo not given),5%
CC(=O)c1ccc(C(=O)NC2CC(C)(C)Cc3c2cnn3-c2ccccc2)cc1 (stereo not given),3%

New compounds follow:
SMILES	N370S GC mod
O=C(NC1CCCC1)C(=O)N(Cc1cccnc1)C(C(=O)NC1CCCC1)c1ccco1 (stereo not given)	-2%
Cc1ccc(C(=O)Nc2ncc(C)s2)s1	-13%
O=C(Nc1ncc2c(n1)-c1ccccc1CC2)c1cccc(Cl)c1	8%
CCN1CCCC1CNC(=O)c1ccc(Sc2ccc(F)cc2)c([N+](=O)[O-])c1 (stereo not given)	-3%
O=C(CSc1ncccc1-c1nc2ccccc2[nH]1)NCc1ccco1	21%
O=C(CCl)Nc1ccccc1C(=O)Nc1ccc2c(c1)OCO2	1%
NS(=O)(=O)c1ccc(CNC(=O)CSc2ccccc2)cc1	-9%
Cc1cc(=O)n2[nH]c(SCc3ccc(Cl)cc3)nc2n1	6%
Cc1[nH]c(=O)[nH]c(=O)c1S(=O)(=O)N1CCCC(C(=O)N2CCN(c3cccc(C(F)(F)F)c3)CC2)C1 (stereo not given)	-9%
Fc1ccc(-c2nnc(N3CCOCC3)c3ccccc23)cc1F	27%
COC(=O)[C@H](Cc1ccccc1)NC(=O)O[C@H]1C(=O)c2ccc(OC)cc2O[C@@H]1c1ccc2c(c1)OCO2	4%&5%
O=C(N/N=C/C=C\c1ccco1)c1cccnc1	3%
CSc1ccc(-c2ccco2)nn1	-3%
CC1Cc2ccccc2N1C(=O)CSc1ccccc1 (stereo not given)	17%
CCCCCCCCCCCCS[C@H]1CS(=O)(=O)C[C@@H]1O	10%
CC(=O)c1ccc(N2CCN(C(=O)c3cc(-c4ccncc4)nc4ccc(Cl)cc34)CC2)cc1	-10%
N=c1c(C(=O)NCCc2ccccc2)cc2c(=O)n3ccccc3nc2n1Cc1ccco1	7%
COc1ccc(N2CCN(C(=O)C3CCN(S(=O)(=O)c4ccc(F)cc4)CC3)CC2)cc1	-19%
COc1ccc(-n2c(-c3ccc(Br)cc3)nc(=S)c3c2CCCC3)cc1	13%
COc1cc(NC(=O)C/C(C)=N/NC(=O)Cc2ccc(Cl)cc2)c(OC)cc1Cl	-8%
CC1CCN(S(=O)(=O)c2ccc3c(c2)N(CC(=O)NCCCN2CC(C)CC(C)C2)C(=O)CS3)CC1 (stereo not given)	-9%
Cc1onc(-c2c(F)cccc2Cl)c1C(=O)c1ccc(F)cc1	-8%
CCn1c(SCC(=O)NNC(=O)c2ccco2)nnc1-c1ccco1	-2%
Cc1c(Cl)c([N+](=O)[O-])nn1CCCC(=O)Nc1cccnc1	3%
COc1ccccc1OCCSc1nc(N)cc(N)n1	-3%

Arranged by SMILES length (rising): part of the list above.
SMILES	N370S GC mod
Fc1cccc(NC(=S)N2CCCCC2)c1	3%
COc1ccccc1OCCSc1nc(N)cc(N)n1	-3%
Cc1onc(-c2c(F)cccc2Cl)c1C(=O)c1ccc(F)cc1	-8%
CC1CCN(S(=O)(=O)c2ccc3c(c2)N(CC(=O)NCCCN2CC(C)CC(C)C2)C(=O)CS3)CC1 (stereo not given)	-9%

The listing continues.
SMILES	N370S GC mod
CC(C)CCn1c(=O)c2ccccc2n2c(CN3CCCC3)nnc12	-2%
O=C1c2ccccc2CC1Sc1nnc(-c2ccccn2)o1 (stereo not given)	5%[2.35 µM]
O=C(NC1CCCCC1)N1CCN(c2ncccn2)CC1	11%
CCCN(CCC)S(=O)(=O)c1ccc(NC(=O)COc2ccccc2)cc1	9%
O=C(CSc1nnc2ccccn12)NNC(=O)c1ccccc1	2%
COc1cccc(C(=O)NCC(=O)n2nc(C)cc2C)c1	-14%
Cc1cccc(OC(=O)NCCOC(=O)N(O)c2ccc(Cl)cc2)c1	-6%
CCOC(=O)C(C(=O)Nc1ccccc1C)C1CCCCC1 (stereo not given)	3%
CC(C)(O)c1nnn(-c2ccccc2)c1C(F)(F)F	4%
CCC1CN(C(=O)N2CCC(C(=O)NCc3cccc(OC)c3OC)CC2)c2cc(C)ccc2O1 (stereo not given)	-3%
O=C(NC1CC1)c1cccc(Br)c1	2%
CCCCC(=O)NNC(=S)NCc1ccccc1	2%
O=S(=O)(Cc1ccc(Cl)cc1)N1CCCC1	3%
COc1ccc(N=c2oc3ccc(OC)cc3cc2-c2nc3ccccc3[nH]2)cc1	2%
CC(=O)N1CCN(c2cc(N3CCCC3)c(F)cc2[N+](=O)[O-])CC1	-10%
O=C1CSC(c2ccccc2)N1CC12CC3CC(CC(O)(C3)C1)C2 (stereo not given)	9%
Cn1c(/C=C/c2ccc(Cl)cc2)nc2ccccc2c1=O	0%
Cc1ccc(CNC(=O)Cn2cccc2C(=O)c2ccccc2)cc1	-17%
COc1ccccc1NS(=O)(=O)c1cccc(C(=O)NN)c1	3%
CCC(C)NC(=O)c1cc(-c2ccc(OC)cc2)on1 (stereo not given)	21%
Cc1occc1C(=O)NC(C)c1ccc2c(c1)OCO2 (stereo not given)	5%
Nc1cc(-c2ccc(Cl)cc2)nn1-c1ccccc1	0%
COc1ccccc1OCCCCN1CCN(C(c2ccccc2)c2ccccc2)CC1	?
Cc1c(C(=O)O)oc2ccc(S(=O)(=O)NCc3ccc4c(c3)OCO4)cc12	-21%
CN(CC(=O)Nc1ccccc1C(=O)NC1CC1)Cc1ccccc1F	2%
Later entries
SMILES	N370S GC mod
Cc1ccc(-c2nnc(SCC(=O)Nc3ccccc3F)o2)cc1	-4%
CN(c1ccccc1)S(=O)(=O)c1ccc(Cl)nc1	-24%
COc1ccc(C2=NC(=O)/C(=C\c3cc(OC)c(OC)c(OC)c3)O2)cc1	12%
CC1CCN(CC(=O)N(C)c2c(N)n(Cc3ccccc3)c(=O)[nH]c2=O)CC1	3%
CC(CCCC(C)(C)O)NC(=O)c1ccc(OC2CCN(C(=O)C3CC3)CC2)cc1 (stereo not given)	14%
CCOC(=O)CNC(=O)CSc1nccn1Cc1ccco1	12%
CCCN(C(=O)CSCc1ccc(Cl)cc1)c1c(N)n(Cc2ccccc2)c(=O)[nH]c1=O	0%
O=C(CN1CCCCC1)Nc1ccc(Br)cc1[N+](=O)[O-]	-8%
CCOc1ccccc1N(CC)C(=O)c1ccc2c(=O)n3c(nc2c1)CCCCC3	16%
FC(F)(F)c1nc(NCC2CCCO2)c2nnn(Cc3ccccc3Cl)c2n1 (stereo not given)	27%
Cc1c(NC(=O)C(C)OC(=O)c2c3c(nc4ccccc24)CCC3)c(=O)n(-c2ccccc2)n1C (stereo not given)	6%
O=C(Nc1ccccc1)Nc1nnc(-c2ccccc2)s1	-10%
CCOC(=O)C1(C(C)(C)CC)CC(CSc2nc3ccccc3[nH]2)OC1=O (stereo not given)	11%
COCC(C)NC(=O)c1nn(Cc2ccccc2)c(=O)c2ccccc12 (stereo not given)	3%
CCOc1ccc(/C(O)=C2\C(=O)C(=O)N(CCOCCO)C2c2ccccc2OC)cc1 (stereo not given)	-3%
CCn1cc(CNCc2cn(C)nc2-c2ccc(C3CCCCC3)cc2)cn1	-16%
Oc1cc2c(cc1CN1CCN(c3ncccn3)CC1)OCO2	-9%
NC(=O)C1CCN(C(=O)CC(c2ccccc2)c2ccccc2)CC1	-3%
CS(=O)(=O)NCCCCNc1ccc(C(F)(F)F)cc1[N+](=O)[O-]	-4%
COc1cc(Cl)c(S(=O)(=O)NCc2ccccn2)cc1Cl	3%
COc1ccc(/C=C/C(=O)NC(=S)NCc2ccccc2)cc1OC	3%
O=C(c1ccc(COc2ccc(Cl)cc2)o1)N1N=C(C(F)F)CC1(O)C(F)F (stereo not given)	-5%
COc1ccccc1N1CCN(C(=O)c2cc(-c3ccccc3)on2)CC1	-5%
COCCCNC(=O)C(=O)NCC(c1ccco1)N1CCN(c2ccc(OC)cc2)CC1 (stereo not given)	-4%
N=c1c2c(n(Cc3ccc([N+](=O)[O-])cc3)c3c1CCC3)CCCC2	5%

Some of the entries above, set out differently.
Nc1cc(-c2ccc(Cl)cc2)nn1-c1ccccc1
- N370S GC mod: 0%

COc1ccccc1OCCCCN1CCN(C(c2ccccc2)c2ccccc2)CC1
- N370S GC mod: ?

Cc1c(C(=O)O)oc2ccc(S(=O)(=O)NCc3ccc4c(c3)OCO4)cc12
- N370S GC mod: -21%

CN(CC(=O)Nc1ccccc1C(=O)NC1CC1)Cc1ccccc1F
- N370S GC mod: 2%

Additional records.
SMILES	N370S GC mod
O=C(c1cc([N+](=O)[O-])ccc1Cl)N1CCN(c2ccc([N+](=O)[O-])cc2)CC1	8%
CC(=O)c1c(C)[nH]c(C(=O)Nc2nc(C)cs2)c1C	-7%
Cc1cc(C)nc(SCC(=O)N(C)CC(=O)Nc2c(Cl)cccc2Cl)n1	-8%
O=C(c1ccco1)N1CCN(C(=S)Nc2ccc(F)cc2)CC1	3%
CC(=O)c1cccc(CN2CCC(C(=O)Nc3cccc(-c4ccn[nH]4)c3)CC2)c1	-1%
O=C(CN1C(=O)CC(c2ccccc2)Sc2ccccc21)NCC1CCCO1 (stereo not given)	-10%
COc1ccc(CCNC(=O)Cn2c(=O)[nH]c3ccsc3c2=O)cc1OC	2%
N#Cc1cc([N+](=O)[O-])cnc1N(CCO)CCO	-11%
Cc1ccc(C(=O)NCc2ccco2)cc1[N+](=O)[O-]	-14%
CC(=O)Nc1ccc(NC(=O)CSc2nnc(-c3ccco3)o2)cc1	-9%
Cc1ccc(CN2CCN(CC(=O)NCCCN3CCN(c4ccc(F)cc4)CC3)C2=O)cc1	3%
CC(=O)OCC1=C(C(=O)O)N2C(=O)C(NC(=O)Cc3cccs3)C2SC1 (stereo not given)	-2%
O=C(c1ccccc1)N1CCN(c2ccc(N3CCOCC3)nn2)CC1	4%
O=[N+]([O-])c1ccc(-c2ccc(C=Nc3cccc4ccccc34)o2)cc1	-9%
CCS(=O)(=O)NCCc1csc(-c2ccccc2)n1	7%
O=[N+]([O-])c1cc(C(F)(F)F)ccc1-n1nnc2ccccc21	11%
COc1ccc(CN(Cc2ccc(OC)cc2)S(=O)(=O)c2ccc(-n3cnnn3)c(C)c2)cc1	29%
CCC1Oc2ccc(C)cc2N(CC(=O)N(Cc2ccc(C)o2)C2CCCC2)C1=O (stereo not given)	4%
COc1ccc(N2C(=O)C3C(C2=O)C(C(=O)c2ccccc2)N2CCCC32)cc1 (stereo not given)	-8%
CN(CC(=O)Nc1ccc(F)c(F)c1F)C(=O)C1CCN(C(=O)Nc2ccccc2)CC1	-15%
COc1ccc(C2C(C(C)=O)=C(O)C(=O)N2c2cccnc2)c(OC)c1 (stereo not given)	-4%
COc1ccc(NS(=O)(=O)NC(=O)c2c[nH]c3ccccc23)cc1	0%
O=C(NCc1cccnc1)c1ccccc1-c1nc(-c2ccccc2)no1	5%
O=C(CCNS(=O)(=O)c1ccc2[nH]c(=O)oc2c1)NCc1ccccc1	-11%
CSc1ccc(/C=C(\NC(=O)c2ccco2)C(=O)N2CCCCC2)cc1	-7%

Single values from above.
CC(=O)OCC1=C(C(=O)O)N2C(=O)C(NC(=O)Cc3cccs3)C2SC1 (stereo not given) – N370S GC mod: -2%
COc1ccc(N2C(=O)C3C(C2=O)C(C(=O)c2ccccc2)N2CCCC32)cc1 (stereo not given) – N370S GC mod: -8%
Cc1cc(C)nc(SCC(=O)N(C)CC(=O)Nc2c(Cl)cccc2Cl)n1 – N370S GC mod: -8%
O=C(CCNS(=O)(=O)c1ccc2[nH]c(=O)oc2c1)NCc1ccccc1 – N370S GC mod: -11%
O=C(c1ccco1)N1CCN(C(=S)Nc2ccc(F)cc2)CC1 – N370S GC mod: 3%
O=[N+]([O-])c1ccc(-c2ccc(C=Nc3cccc4ccccc34)o2)cc1 – N370S GC mod: -9%
Cc1ccc(C(=O)NCc2ccco2)cc1[N+](=O)[O-] – N370S GC mod: -14%
